gsp ag = qHTS for Agonist of gsp, the Etiologic Mutation Responsible for Fibrous Dysplasia/McCune-Albright Syndrome: qHTS; AID 624287, 2012; gsp mutant cells, cAMP HTRF, 30 min; control for the full effect not named in the record; Potency, µM (doses to about 76.9 µM), without a hit: top-dose activation (cAMP increase), most hits filed as activators; 0.13% of 340,000 active; active = well fitted activation curve with a large enough effect; inconclusive = small, poorly fitted or top-dose-only effect, or another doubt; inactive = no such curve, though single readings can be large or run the other way; cell line not stated here;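 also: phosphodiesterase inhibitor Ro 20-1724 added with compounds to block cAMP breakdown; potency is read from the fitted curve at half-maximal effect; nearly all actives have a fitted effect of over 60% in size; about a fifth of the inactives were tested at one dose only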
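Cells stably selected in G418 were plated at 2000/well, grown 16-24 hr, then given compounds in DMSO with the PDE inhibitor […] (300 uM solution added) for 30 min at 37C; cAMP was read by HTRF.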
Six1-Eya2 inh = qHTS Assay for Inhibitors of the Six1/Eya2 Interaction; activity change, % (no concentration beside the values); 0.56% of 360,000 active; Homeobox protein SIX1 (Homo sapiens) + Protein phosphatase EYA2 (Homo sapiens), …; AlphaScreen GST-Six1/His-Eya2 binding, biochemical; active compounds read low; control for the full effect not named in the record; in the data active = activity change below about -65%; inconclusive = about -30% to -65%; inactive = above about -30%; also: % is scaled to controls: 0 for no effect and ±100 for the full control effect
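Compounds are tested against tagged Six1 and Eya2 proteins bridged by glutathione donor and nickel acceptor beads; after a one-hour incubation at 37 °C without light, AlphaScreen emission is recorded.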
D2 potentiator = Beta-Arrestin HTS for Positive Allosteric Modulators of the Human D2 Dopamine Receptor: Potentiators; DiscoveRx D2 beta-arrestin cells, luminescence, 90 min; 100% = 57 uM dopamine signal; 0.23% of 360,000 active; potentiation, % (concentration not given with the values); active = potentiation of 50% or more; inconclusive = 30% to 50%; inactive = 30% or less;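 also: compound concentration not given in the record; tested on top of an EC20 dose of dopamine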
Target sequence (P14416 whole entry, looked up): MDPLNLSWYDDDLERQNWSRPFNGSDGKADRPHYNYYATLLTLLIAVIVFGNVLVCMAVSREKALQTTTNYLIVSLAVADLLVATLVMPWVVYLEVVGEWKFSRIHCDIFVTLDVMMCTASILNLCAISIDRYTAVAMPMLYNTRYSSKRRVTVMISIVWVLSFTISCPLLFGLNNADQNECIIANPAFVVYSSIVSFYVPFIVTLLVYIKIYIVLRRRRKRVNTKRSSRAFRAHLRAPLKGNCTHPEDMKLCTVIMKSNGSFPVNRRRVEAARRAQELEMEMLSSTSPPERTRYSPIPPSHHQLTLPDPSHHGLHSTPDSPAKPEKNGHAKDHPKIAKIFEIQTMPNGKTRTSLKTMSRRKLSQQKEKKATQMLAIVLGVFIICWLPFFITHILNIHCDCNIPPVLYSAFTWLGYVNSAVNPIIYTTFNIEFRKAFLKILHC
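PathHunter D2 cells, attached overnight at 37 deg C, received compound in DMSO plus dopamine at EC20 (50 nM final) for 90 min at 37 deg C. Beta-arrestin recruitment was read as luminescence after 1 h with detection reagent at ambient temperature.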
CtBP-E1A inh = qHTS Assay for Inhibitors of the CtBP/E1A Interaction; activity change, % (concentration not given with the values); CtBP / adenovirus E1A interaction (AlphaScreen); 0.49% of 340,000 active; AID 651724, 2012; AlphaScreen GST-E1A/His-CtBP binding, 1536-well; active compounds read low; control for the full effect not named in the record; in the data active means activity change below about -65%; inconclusive means about -30% to -65%; inactive means above about -30%; also: % is scaled to controls: 0 for no effect and ±100 for the full control effect
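Steps: dispense buffer (Tris pH 8.0, NaCl 300 mM, TCEP 1 mM, BSA, Tween 20); add 5X protein mix (GST-E1A, His-CtBP, 125 nM each); pin 23 nL compound; 2 h at 37 °C, dark; add 5X beads (50 ug/mL); 1 h; read.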
gsp antag = qHTS for Antagonists of gsp, the Etiologic Mutation Responsible for Fibrous Dysplasia/McCune-Albright Syndrome: qHTS; 0.4% of 340,000 active; AID 624288, 2012; Potency, µM (titrated, usually from 76.9 µM), inactives show at the highest dose activity change, negative = inhibition, actives largely listed as inhibitors; gsp-mutant cells, cAMP HTRF, 30 min; control for the full effect not named in the record; active = falling curve of any shape with a large fitted effect; inconclusive = falling curve, mostly with a smaller effect; inactive = flat or rising curve; cell line not stated here;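 also: intracellular cAMP measured with PDE inhibitor Ro 20-1724 present during compound exposure; potency is read from the fitted curve at half-maximal effect; % is scaled to controls: 0 for no effect and ±100 for the full control effect; nearly all actives have a fitted effect of over 65% in size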
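Cells in G418 medium, seeded 16-24 h, 37C; buffer exchange to DPBS + 1 mM CaCl2, 0.5 mM MgCl2, 0.05% BSA; cpds in DMSO + […] (300 uM stock), 30 min 37C; HTRF cAMP detection.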
D2 agonist = Beta-Arrestin HTS for Positive Allosteric Modulators of the Human D2 Dopamine Receptor: Agonists; DiscoveRx PathHunter D2 beta-arrestin, luminescence, 90 min; 100% = 57 uM dopamine signal; 0.084% of 360,000 active; activation, % (no concentration beside the values); AID 624465, 2012; D(2) dopamine receptor (Homo sapiens), P14416; in the data active = activation above about 40%; inconclusive = about 15% to 40%; inactive = below about 15%; also: compound concentration not given in the record; the text of the record calls up to 30% inactive
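Agonist mode: compounds alone added to overnight-plated D2 PathHunter cells for 90 min at 37 C, with 57 uM final dopamine (EC100) defining full response. Beta-arrestin recruitment detected by chemiluminescent reagent, read after 1 h at ambient temperature.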
* = called active by the depositor; ? = inconclusive; . = no result given; [ ] = another dose, or the depositor's remark. An unsorted share of the library, and some 1.4% of all compounds hit somewhere here.

item | smiles | gsp ag | Six1-Eya2 inh | D2 potentiator | CtBP-E1A inh | gsp antag | D2 agonist
1 | Cc1cc(O)cc(O)c1C(=O)Cc1cnn(-c2ccccc2)c1 | -69%[inhibitor] | -8 | 1 | 1 | -17% | 0.1
2 | COC(=O)C1(C)NC(=O)c2ccccc2N1 (stereo not given) | -3% | 6 | 0 | 9 | 4% | 8.7
3 | CC(C)c1ccc(CN2CC(C(=O)Nc3ccccc3)CC2=O)cc1 (stereo not given) | 14% | -2 | -3 | 10 | 5% | -2.1
4 | COc1ccc2c(c1)C(=O)C1(CC2)OC1c1cccnc1 (stereo not given) | -5% | 0 | -10 | -4 | . | -8.8
5 | O=[N+]([O-])c1ccc(N=NNc2ccc([N+](=O)[O-])cc2)cc1 | 14% | 0 | 2 | 1 | -2% | -0.4
6 | S=c1[nH]nc(-c2ccccc2)o1 | ? | -3 | 23 | -5 | 0% | -1.3
7 | Cc1c(NC(=O)c2cccc(S(=O)(=O)N(C)c3ccccc3)c2)c(=O)n(-c2ccccc2)n1C | -31%[inhibitor] | -1 | 1 | 1 | 6% | -0.8
8 | CN1CCCCC1(C)C(=O)NCc1cc(Cl)ccc1F (stereo not given) | . | 3 | -2 | 4 | . | -0.9
9 | Cc1ccc(NS(=O)(=O)c2ccc(C3CCCCC3)cc2)cc1 | -76%[inhibitor] | 7 | -11 | 1 | -4% | -3.6
10 | O=C(CSc1nnc(Cc2ccccc2)o1)NC1CC2CCC1C2 (stereo not given) | 11% | 2 | -4 | -3 | 11% | -3.6
11 | CCNC(=O)C1(C)CCN(C(=O)c2cccc(Cl)c2)C1 (stereo not given) | . | -8 | -4 | -8 | . | -5.6
12 | COC(=O)c1ccccc1NC(=O)COC(=O)CO/N=C(\C)c1ccc2c(c1)OCO2 | -22%[15.4 µM] | 5 | -4 | 11 | -5% | -3.8
13 | Clc1cccc(NCc2nnc3n2CCCCC3)c1 | 12% | 4 | -3 | -20 | 12% | -4.7
14 | Cc1nc(NC(=O)c2cc(-n3cnnc3)ccc2Cl)ccc1Br | -42%[inhibitor] | -3 | 3 | -1 | -4% | -1.7
15 | Cc1nc(C(F)(F)F)ccc1C(=O)Nc1ccccc1N1CCOCC1 | 18% | -17 | -35 | ? | 5% | -3.1
16 | N=C1C(=O)OCC1c1cc(Cl)ccc1NC(=O)Nc1ccccc1 (stereo not given) | ? | 3 | -19 | 3 | 4% | 0.7
17 | c1ccc(Cn2cc(-c3ccccc3)cn2)cc1 | ? | 42 | -10 | 50 | 13% | -1.0
18 | CC1CN(C(=O)c2c(Br)cnn2C)CC(C)O1 (stereo not given) | 6% | -5 | -22 | -2 | 10% | -3.3
19 | O=C(NC1CCN(C(=O)Nc2ccccc2Cl)CC1)c1ccccc1 | -1% | -1 | -6 | . | 3% | -3.6
20 | C=CCOc1ccc(/C=C/C(=O)OCC(=O)NCC2CCCO2)cc1 (stereo not given) | -7% | -2 | 20 | 6 | 11% | 1.2
21 | CCOc1ccc(C(=O)N/N=C/c2cccc3cccnc23)cc1 | -7% | -92* | -13 | -98* | -4% | 0.1
22 | O=C(Oc1ccccc1C(=O)Nc1ccccc1)c1ccccc1Br | 3% | 6 | -44 | 0 | 20% | -6.8
23 | COC(=O)c1cc(OC)c(OC)cc1NC(=O)c1c(-c2ccccc2Cl)noc1C | -47%[inhibitor] | -7 | -4 | -16 | 5% | -2.6
24 | O=C(CCn1c(SCC(=O)c2ccccc2)nc2ccccc2c1=O)NCc1ccc(F)cc1 | -6% | -3 | -4 | -8 | 1% | -2.0
25 | COC(=O)CNC(=O)CNC(=O)Nc1ccccc1 | -9% | 1 | -6 | 17 | -8% | -0.1
26 | COc1cc(C(C)=O)ccc1Oc1ncnc2c1cnn2-c1ccc(F)cc1 | -9% | -4 | -9 | -1 | -7% | 0.1
27 | COc1ccccc1C(=O)NC(=O)COC(=O)C1CC1C (stereo not given) | -15%[15.4 µM] | 6 | 6 | 5 | 8% | -6.8
28 | COc1ccc2[nH]c(=O)c(CNc3ccccc3C)cc2c1 | -37%[15.4 µM] | 0 | -3 | 0 | 2% | -0.2
29 | Oc1ccc2ccccc2c1C1Nc2cccc3cccc(c23)N1 | -27% | -16 | 50* | -5 | -7% | ?
30 | Cc1ccc(CNCCC2=CCCCC2)cc1 | 14% | 5 | -18 | 0 | 8% | 0.0
31 | Cc1ccc(N(CC(=O)N2CCN(C3CCCCC3)CC2)S(=O)(=O)c2cccnc2)cc1 | -3% | 2 | -16 | 2 | -2% | -2.6
32 | CCOC(=O)C(=NC(C)C)NNc1cc(Cl)ccc1Cl | -31% | -14 | -3 | -9 | 0% | -2.6

Compound profiles, from the list above. Order of values: gsp ag | Six1-Eya2 inh | D2 potentiator | CtBP-E1A inh | gsp antag | D2 agonist
Cc1ccc(N(CC(=O)N2CCN(C3CCCCC3)CC2)S(=O)(=O)c2cccnc2)cc1 as listed: -3% | 2 | -16 | 2 | -2% | -2.6
COc1cc(C(C)=O)ccc1Oc1ncnc2c1cnn2-c1ccc(F)cc1 as listed: -9% | -4 | -9 | -1 | -7% | 0.1
COc1ccc2[nH]c(=O)c(CNc3ccccc3C)cc2c1 as listed: -37%[15.4 µM] | 0 | -3 | 0 | 2% | -0.2

Going on with the list.
item | smiles | gsp ag | Six1-Eya2 inh | D2 potentiator | CtBP-E1A inh | gsp antag | D2 agonist
33 | Cc1cc(C(=O)COc2ccc(F)cc2Br)c(C)n1C | -1% | -4 | -1 | -2 | -4% | 1.6
34 | Cc1c2cnn(CC(=O)NCCCN3CC(C)CC(C)C3)c(=O)c2c(C)n1Cc1ccc(Cl)cc1 (stereo not given) | 22% | -10 | -32 | -20 | 4% | -3.8
35 | O=C(O)c1cc(Cl)c2c(c1)OCO2 | 10% | 2 | -12 | . | 1% | -3.5
36 | CC1=C/C(=C\c2ccc3c(c2)OCO3)C(=O)S1 | 7%[15.4 µM] | -8 | -3 | -3 | -9% | -11
37 | CC1(C)CC(NC(=O)c2cc(S(=O)(=O)N3CCCCC3)ccc2Cl)CC(C)(C)N1 | 1%[15.4 µM] | 13 | -6 | -2 | 3% | -5.2
38 | CN(C)C(=O)c1ccc(NC(=O)CN2CCc3cc4c(cc3C2)OCCCO4)cc1 | -1% | 20 | -13 | 0 | ? | 0.3
39 | Cc1ccc(C(=O)NNC(=O)CCC(=O)NCc2ccccc2)cc1Br | ? | -2 | -8 | 3 | 4% | -1.2
40 | COc1ccc2oc(=O)c(NC(=O)C3CCCCC3)cc2c1 | -30% | 2 | -1 | 8 | -2% | -2.3

Only CtBP-E1A inh and gsp ag, for six of the compounds above:
nr | canonical_smiles | CtBP-E1A inh | gsp ag
33 | Cc1cc(C(=O)COc2ccc(F)cc2Br)c(C)n1C | -2 | -1%
34 | Cc1c2cnn(CC(=O)NCCCN3CC(C)CC(C)C3)c(=O)c2c(C)n1Cc1ccc(Cl)cc1 (stereo not given) | -20 | 22%
35 | O=C(O)c1cc(Cl)c2c(c1)OCO2 | . | 10%
36 | CC1=C/C(=C\c2ccc3c(c2)OCO3)C(=O)S1 | -3 | 7%[15.4 µM]
37 | CC1(C)CC(NC(=O)c2cc(S(=O)(=O)N3CCCCC3)ccc2Cl)CC(C)(C)N1 | -2 | 1%[15.4 µM]
38 | CN(C)C(=O)c1ccc(NC(=O)CN2CCc3cc4c(cc3C2)OCCCO4)cc1 | 0 | -1%

(listing goes on)
item | smiles | gsp ag | Six1-Eya2 inh | D2 potentiator | CtBP-E1A inh | gsp antag | D2 agonist
41 | OC(c1ccccc1)C(Nc1ccccn1)c1ccccc1 (stereo not given) | ? | 10 | -8 | 2 | 10% | -2.6
42 | Cc1ccc(C2(SCC(N)C(=O)O)c3ccccc3-c3ccccc32)cc1 (stereo not given) | 1% | -8 | -1 | -3 | 0% | 1.4
43 | COc1ccc(C)cc1S(=O)(=O)NCC(c1ccc2c(c1)OCO2)N1CCN(C)CC1 (stereo not given) | 23%[15.4 µM] | 3 | -13 | 10 | 13% | -4.9
44 | Cc1ccc2sc(N(CCCN(C)C)C(=O)c3nc4ccccc4s3)nc2c1C | 5%[15.4 µM] | -3 | -7 | -3 | 11% | -0.2
45 | Cc1ccc2oc(=O)c3cnn(CC(=O)N(Cc4ccco4)C4CCCCC4)c3c2c1 | -40%[inhibitor] | -1 | 1 | 1 | ? | -2.7
46 | CCn1c(SCC(=O)NCCOc2ccccc2)nc2ccccc2c1=O | ? | 6 | -14 | 4 | -5% | -1.2
47 | CCCCN(CC)C(=O)Cc1c(C(=O)O)[nH]c2ccc(Cl)cc12 | -31%[inhibitor] | 11 | -2 | -2 | 1% | 0.4
48 | CCCCN(C)C(=O)c1c[nH]c2ccc(S(=O)(=O)N3CCOCC3)cc2c1=O | ? | 4 | -5 | 3 | 13% | -4.6
49 | O=C(Cc1n[nH]c(=O)c2ccccc12)N/N=C/c1cc2c(cc1Cl)OCO2 | -44%[15.4 µM] | 17 | -8 | 19 | -8% | 1.2
50 | CC1CCN(C(=O)c2cc(Cl)ccc2NC(=O)c2ccco2)CC1 | -3%[15.4 µM] | 3 | 3 | -5 | 14% | -1.5
51 | O=Cc1cccc(OCc2cn(CC(=O)c3ccc(O)cc3)nn2)c1 | 23% | -1 | -5 | 3 | . | -18
52 | O=C(CCC(=O)NNC(=O)c1ccc([N+](=O)[O-])cc1)NCc1ccccc1 | -8%[15.4 µM] | 0 | -3 | -3 | 8% | 2.8
53 | CCCOc1ccc(C2c3c(oc4ccccc4c3=O)C(=O)N2CCN(CC)CC)cc1OC (stereo not given) | -11% | -3 | -12 | 2 | 12% | -3.9
54 | O=C(Nc1ccccc1)Nc1nc(-c2ccc(Cl)cc2)cs1 | 10% | 1 | -4 | 2 | 16% | 4.0
55 | Cc1ccc(NC(=O)C2CCN(S(C)(=O)=O)CC2)cc1Cl | -42%[inhibitor] | -11 | -4 | 12 | -2% | -0.7
56 | CCc1ccc(-c2cc(C(=O)O)c3ccccc3n2)s1 | 22% | -2 | -12 | . | -17% | 1.3
57 | CCN(CC)c1ccc(NC(=S)NC(=O)Cc2ccccc2)cc1 | -1% | ? | 0 | ? | -4% | 0.1
58 | Cc1ccc2nc(C)c(C(=O)N/N=C/c3cccs3)n2c1 | 12% | -1 | -3 | -23 | 1% | -1.5
59 | COc1ccccc1Cn1c(C)c(C(=O)NCc2ccc(C#N)cc2)sc1=O | . | -6 | 1 | -4 | . | 2.0

Assay outcomes as filed in PubChem BioAssay.
